Screens (PubChem)
Lassa entry inh: inhibitors of Lassa virus binding or cell entry; 300,000 tested, 1.2% active; Lassa virus pseudotype entry inhibition, cell reporter; control for the full effect not named in the record; AID 540256; Potency, µM (titrated, usually from 37.9 µM), inactives show at the top dose activity change, negative = inhibition, usual class: inhibitors; active means well fitted inhibition curve with a large enough effect; inconclusive means small, poorly fitted or top-dose-only effect, or effect the other way; inactive means flat fitted curve, though single readings scatter; tested in HEK293 cells; also: % is scaled to controls: 0 for no effect and ±100 for the full control effect; nearly all actives have a fitted effect of over 50% in size; luciferase read-out
RE007 growth inh: less growth of the S. pombe RE007 Vpr strain. S. pombe RE007 Vpr strain, BacTiter-Glo ATP luminescence, 24 h; control for the full effect not named in the record. Potency, µM (doses to about 92.2 µM), inactives show at the highest dose activity change, negative = less growth. 360,000 tested, 0.21% active; active = well fitted falling curve with a large enough effect; inconclusive = small, poorly fitted or top-dose-only effect; inactive = no such curve, though single readings can be large or run the other way;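 also: % is scaled to controls: 0 for no effect and ±100 for the full control effect; nearly all actives have a fitted effect of over 50% in size; the assay follows cell death caused by Vpr and the record does not say whether a fall means rescue or toxicity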
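Fission yeast strain RE007, carrying one chromosomally integrated HIV-1 vpr copy, was seeded at OD 0.01 in PMG+AL medium with 23 nL pinned compound. After 24 h at 30 °C and 99% humidity, viability was read by BacTiter-Glo luminescence.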
2A StopGo: FMDV 2A StopGo reporter, luciferase signal; 410,000 tested, 1.2% active; Potency, µM (highest dose often 57.9 µM), without a hit: top-dose signal change, negative = less light; human cells with a luciferase reporter of 2A StopGo recoding; control for the full effect not named in the record; active = well fitted falling curve with a large enough effect; inconclusive = small, poorly fitted or top-dose-only effect; inactive = no such curve, though single readings can be large or run the other way; tested in HEK293T cells; also: % is scaled to controls: 0 for no effect and ±100 for the full control effect; nearly all actives have a fitted effect of over 45% in size; luciferase light after 4 h
MARV entry inh: Marburg virus entry inhibition; Marburg virus pseudotyped entry inhibition, cell reporter; control for the full effect not named in the record; about a third of the inactives were read at about 46 µM; Potency, µM (series often up to 37.8 µM), without a hit: top-dose activity change, negative = inhibition, usual class: inhibitors; 300,000 tested, 1.8% active; AID 540276; active = well fitted inhibition curve with a large enough effect; inconclusive = small, poorly fitted or top-dose-only effect, or effect the other way; inactive = flat fitted curve, though single readings scatter; tested in HEK293 cells; about a fifth of its hits are not listed in these tables; also: % is scaled to controls: 0 for no effect and ±100 for the full control effect; luciferase read-out
Cruzain noTriton: inhibitors of Trypanosoma cruzi cruzain without detergent; 200,000 tested, 2.3% active; Potency, µM, for the others: max response, negative = inhibition, usual class: inhibitors; purified cruzain, Z-FR-AMC fluorescence, no detergent; P25779; active = well fitted curve in the direction sought with a large enough effect; inconclusive = small, poorly fitted or top-dose-only effect, or another doubt; inactive = no such curve, though single readings can be large; an effect the other way counts as inactive or inconclusive;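 also: plate controls were enzyme without inhibitor for no effect and buffer without enzyme for full effect; nearly all actives have a fitted effect of over 40% in size; top concentration of the series not given in the record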
Target sequence (P25779 123-467 limits assumed): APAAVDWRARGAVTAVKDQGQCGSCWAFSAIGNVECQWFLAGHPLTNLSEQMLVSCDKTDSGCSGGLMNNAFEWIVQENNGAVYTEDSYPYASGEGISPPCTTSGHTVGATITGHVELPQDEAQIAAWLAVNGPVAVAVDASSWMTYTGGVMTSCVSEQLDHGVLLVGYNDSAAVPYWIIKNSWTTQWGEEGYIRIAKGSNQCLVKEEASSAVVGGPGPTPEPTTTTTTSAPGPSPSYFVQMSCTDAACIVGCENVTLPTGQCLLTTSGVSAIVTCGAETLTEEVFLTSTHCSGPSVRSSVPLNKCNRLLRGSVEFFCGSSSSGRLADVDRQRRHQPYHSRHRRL
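Detergent-free condition (0.00005% Triton X-100) in acetate buffer pH 5.5 with DTT. 1.5 nM enzyme and compound were pre-mixed 15 min, then 2 uM Z-FR-AMC substrate added; reaction progress from fluorescence change between first and third reads (60 s).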
NS1 inh: inhibitors of influenza NS1 protein function; S. cerevisiae slowed by influenza A NS1, growth recovery by OD600; Potency, µM (titrated, usually from 46.1 µM), inactives show at the highest dose activity, positive = more growth; 270,000 tested, 0.4% active; AID 2326; also: actives are rising curves; nearly all actives have a fitted effect of over 50% in size
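Growth recovery, yeast-based: influenza A NS1 expressed in S. cerevisiae causes slow growth, and suppressors are detected by OD600. The parent strain without NS1 is used as positive control.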
SARS PLP yeast: blocks SARS-CoV papain-like protease in a yeast assay; 330,000 tested, 0.19% active; S. cerevisiae expressing SARS-CoV PLpro, growth rescue; control for the full effect not named in the record; Potency, µM (highest dose often 32.9 µM), inactives show top-dose activity, positive = growth rescue; also: 0% is about no effect; nearly all actives have a fitted effect of over 55% in size; growth read by luminescence after 48 h
Cruzain Triton: inhibitors of Trypanosoma cruzi cruzain with detergent | P25779 | purified cruzain, Z-FR-AMC fluorescence, 0.01% Triton | Potency, µM, for inactives: max response, negative = inhibition, hits mostly inhibitors | 200,000 tested, 0.43% active; active = well fitted curve in the direction sought with a large enough effect; inconclusive = small, poorly fitted or top-dose-only effect, or another doubt; inactive = no such curve, though single readings can be large; an effect the other way counts as inactive or inconclusive;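 also: plate controls were neutral wells for no effect and buffer without enzyme for full effect; nearly all actives have a fitted effect of over 40% in size; top concentration of the series not given in the record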
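Read-out: AMC fluorescence (360 nm excitation, 450 nm emission), four reads over 2 min, first-to-third difference used. Conditions: cruzain 1.5 nM, Z-FR-AMC 2 uM, pH 5.5 acetate, 5 mM DTT, 0.01% Triton X-100.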
* hit, by the source's call; ? = inconclusive; . = no result given; [ ] = dose if it differs, or a comment. Unless noted, calls follow the shape of the dose curve; as a rule, active means well fitted rising curve with a large enough effect; inconclusive means small, poorly fitted or top-dose-only effect; inactive means no such curve, though single readings can be large or run the other way. Potency is read from the fitted curve at half-maximal effect.

SMILES	Lassa entry inh	RE007 growth inh	2A StopGo	MARV entry inh	Cruzain noTriton	NS1 inh	SARS PLP yeast	Cruzain Triton
O=C(COC(=O)/C=C/c1cc(Br)ccc1F)Nc1ccc2[nH]c(=O)[nH]c2c1	-9%	-7%	-14%	-6%[46.1 µM]	.	.	0%	.
CSCc1nc2scc(-c3ccccc3)c2c(=O)[nH]1	6%[46.1 µM]	-6%	11%	-12%[46.1 µM]	.	.	6%	.
COc1cc([N+](=O)[O-])cc(/C=N/NC(=O)c2cncc(Br)c2)c1O	.	-6%	31%[activator]	.	.	6%	10%	.
NCCNC(=O)c1c(O)c2cccc3c2n(c1=O)CCC3	8%	-16%	-25%	10µM*	.	-25%	-5%	.
COCCN1CCc2nc(SCC(=O)Nc3ccc(C)c(Cl)c3)[nH]c(=O)c2C1	17%[46.1 µM]	.	-10%	-4%[46.1 µM]	-11%	.	.	-1.0%
CCOc1cccc2c1Oc1nc(-c3ccccc3)nc(SCC(=O)Nc3ccc(F)cc3)c1C2	-4%[46.1 µM]	.	11%	?	-14%	.	.	0.2%
Cc1ccc(NC(=O)c2ccoc2C)cc1C	-2%	-21%	15%	-1%	-1%	-13%	-67%	2.9%
Cc1[nH]n(C(N)=S)c(=O)c1N=Nc1ccc(Br)cc1	.	-12%	8%	.	.	-43%	-3%	.
CCOc1cc(/C=N/NC(=O)c2ccncc2)cc(Cl)c1OS(C)(=O)=O	2%	4%	-15%	?	-6%	3%	25%	-12%
CCOC(=O)c1c(NC(=O)c2ccccc2OCC)sc2c1CCC(CC)C2 (configuration not stated)	?	.	-9%	.	2%	.	.	-0.5%
O=C(CCC(=O)c1cccs1)NCc1ccncc1	1%	5%	-8%	18%[46.1 µM]	.	.	-5%	.
O=C(CN1C(=O)NC2(CCCC2)C1=O)OCc1ccc(Cl)cc1Cl	-9%	-5%	-13%	-1%	.	.	-1%	.
O=[N+]([O-])c1ccc2c(c1)nc1n2CCCCC1	?	-3%	16%	?	.	-4%	2%	.
Cc1ccc(/C=C/C(=O)N2CCN(S(=O)(=O)/C=C/c3ccccc3)CC2)o1	.	-2%	-8%	.	.	-1%	5%	.
O=C(Nc1ccc(OC(F)(F)F)cc1)c1cccc(-n2cnnn2)c1	-5%	16%	-6%	18%	.	.	-1%	.
O=C(CSCc1ccc(Cl)cc1Cl)Nc1nccs1	20%	0%	49%[activator]	-33%	-22%	-6%	14%	0.6%
Cc1cccc(NC(=O)CCCNC(=O)c2ccc(Cl)cc2)n1	0%	-13%	-4%	-7%	.	-13%	-15%	.
CCCc1cc(=O)oc2c(CN3CCN(C)CC3)c(O)ccc12	.	3%	6%	.	.	-2%	2%	.
O=C(Nc1ccc(Cl)cc1)c1csc(Cc2ccccc2)n1	.	-1%	5%	.	.	-1%	-2%	.
O=C(c1ccc(NS(=O)(=O)c2cccs2)cc1)N1CCN(c2ccccc2Cl)CC1	-13%[46.1 µM]	8%	4%	3%[46.1 µM]	.	.	-1%	.
CCOc1ccc(NC(=S)Nc2cccc3cnccc23)cc1	-6%	-9%	-12%	-1%	-1%	-26%	-25%	-7.0%
COc1cc(OC)cc(C(=O)N2CCN(C3CCCCC3)CC2)c1	0%[46.1 µM]	11%	-5%	-1%[46.1 µM]	.	-12%	-2%	.
Cc1ccc(S(=O)(=O)NCCC(=O)Nc2ncccc2O)cc1C	21%	0%	9%	?	.	.	-9%	.
Cc1cc(C(=O)N/N=C2/CC(C)CC(C)(C)C2)c(C)o1 (configuration not stated)	4%	1%	13%	?	.	-4%	2%	.
CCO[C@H]1OC(C(=O)NCc2ccccc2)=C[C@@H](C)[C@@H]1CCCO	.	-7%	-4%	.	.	4%	0%	.
Cc1nn(-c2ccccc2Cl)c(Cl)c1/C=C(\C#N)C(N)=O	-7%	-27%	?	-14%	8%	-16%	-19%	-2.6%
CCOCCCn1c(=S)[nH]c2cc(C(=O)NCC(OC)OC)ccc2c1=O	6%[46.1 µM]	4%	-22%	6%[46.1 µM]	.	.	0%	.
CCCCn1c(SCC(=O)NCc2ccco2)nnc1-c1ccoc1C	-4%	4%	-15%	15%[46.1 µM]	?	7%	2%	-3.2%
COc1cccc(-c2cc(C(=O)Nc3ccccc3)c3ccccc3n2)c1	13%	1%	-11%	-2%[46.1 µM]	.	.	.	.
N#C/C(=C\c1c[nH]c2ccccc12)C(=O)Nc1ncc(Cc2ccc(Cl)cc2Cl)s1	?	-12%	0%	?	7.9µM*	11µM*	-7%	-1.5%
Cc1ccsc1CN(C(=O)COc1ccccc1Cl)C1CCS(=O)(=O)C1 (configuration not stated)	1%[46.1 µM]	.	-8%	-20%[46.1 µM]	-4%	.	.	-3.5%
COc1ccc(CCNC(=O)c2cccnc2)cc1OC	-2%	0%	-7%	14%	-4%	-1%	-4%	1.0%
COC(=O)CSc1nnc(SCc2ccccc2)s1	-5%	2%	.	-10%	5%	-3%	-2%	-0.1%
CC(C)(C)C(=O)Nc1ccc(/C=C/C(=O)c2ccco2)cc1	?	-9%	-62%	?	.	-16%	-2%	.
CC(=O)n1cc(/C=N/NC(=O)c2ccccc2Cl)c2ccccc21	.	14%	-9%	.	.	3%	-1%	.
COc1ccc(NC(=O)CS(=O)CC(=O)Nc2ccc(OC)c(OC)c2)cc1 (configuration not stated)	45%	1%	19%	17%	9%	-6%	0%	-1.7%
CCc1[nH]nc(C(=O)N2CCCC(C(=O)c3cccc(OC(C)C)c3)C2)c1C (configuration not stated)	.	2%	-1%	-10%[46.1 µM]	.	-16%	4%	.
COn1c(-c2ccccc2)nc2c1CCc1c-2no[n+]1[O-]	14%	12%	0%	27%	-3%	-3%	3%	4.0%
Cc1cnn(C(=O)c2cc(-c3ccccn3)nc3ccc(Cl)cc23)c1	-12%	-4%	-6%	-2%[46.1 µM]	.	3%	-1%	.
O=C(NCC1CCCO1)C1CCN(C2CCN(Cc3ccco3)CC2)CC1 (configuration not stated)	-16%[46.1 µM]	-2%	-19%	?	.	-1%	0%	.
CCC(C)(C)NC(=O)C(c1ccncc1)N(C(=O)Cn1nnc2ccccc21)c1cc2c(cc1C(C)=O)OCO2 (configuration not stated)	-6%	4%	4%	12%[46.1 µM]	.	-1%	1%	.
Cc1cc(Br)c(S(=O)(=O)NCc2cccnc2)cc1C	.	-8%	47%[activator]	.	.	1%	-5%	.
CCCCCCOc1ccc(OC(=O)c2ccncc2)cc1	-15%	-19%	43%[activator]	?	7%	6%	18%	-6.6%
O=C(NCc1cccs1)c1cc(-c2cccc(Cl)c2)on1	10%	6%	41%[activator]	?	?	-4%	1%	4.5%
Cc1ccc(C(=O)N2CCN(S(=O)(=O)c3ccc(C)cc3)CC2)cc1	-18%[46.1 µM]	-12%	-15%	-7%[46.1 µM]	.	0%	24%	.
COCCCNC(=O)NC(=O)c1ccccc1	1%	0%	16%	?	4%	17%	22%	0.2%
CCCCS(=O)(=O)c1oc(-c2ccc(F)cc2)nc1S(=O)(=O)c1ccc(C)cc1	?	.	28µM*	10µM*	-7%	.	.	-5.2%
Cc1ccc(C)c(N2CCN(C(=O)CSCc3ccccc3Cl)CC2)c1	?	.	-7%	.	16%	.	.	0.8%
C=CCN1C(=O)c2ccc(C(=O)N3CCN(S(=O)(=O)c4cccc(Cl)c4)CC3)cc2C1=O	18%	-6%	-17%	-9%	.	7%	?	.
O=C(COC(=O)c1ccc(S(=O)(=O)C(F)F)cc1)NC(=O)NC1CCCCC1	?	5%	0%	-1%	.	.	-1%	.

Next records follow.
SMILES	Lassa entry inh	RE007 growth inh	2A StopGo	MARV entry inh	Cruzain noTriton	NS1 inh	SARS PLP yeast	Cruzain Triton
Cc1ccccc1C(=O)n1nc(-c2cccnc2)nc1NCc1ccc(F)cc1	15%[46.1 µM]	.	?	?	3%	.	.	-7.5%
O=C(O)CCCC(=O)N1N=C(c2ccccc2)CC1c1ccc2nccnc2c1 (configuration not stated)	21%	11%	0%	8%	-7%	8%	7%	-5.3%
CC1=NN(C(N)=S)C(C)(C)C1	.	13%	-8%	.	.	9%	0%	.
C=CCn1c(O)c(N=Nc2ccccc2)c2ccccc21	6%[46.1 µM]	4%	-4%	-14%[46.1 µM]	.	-5%	-7%	.
CCOC(=O)C1=C(C)Nc2ncnn2C1c1cc(OC)ccc1OC (configuration not stated)	-2%	-3%	.	-6%	9%	8%	1%	0.5%
Cc1oc(C)c2c(=O)cc(-c3ccc4c(c3)OCO4)cc(OC(=O)c3ccc(Cl)cc3)c12	-3%[46.1 µM]	.	-20%	-4%[46.1 µM]	?	.	.	-2.3%
CCOc1ccc(CCNC(=O)Cc2ccc(NC(=O)C3=C(C)OCCS3)cc2)cc1	.	1%	25%	.	.	12%	5%	.
CS(=O)(=O)c1ccc(-c2nnn(CC(=O)Nc3ccc4c(c3)OCCO4)n2)cc1	0%	2%	-7%	21%[46.1 µM]	.	?	4%	.
O=C(CNC(=O)c1ccccc1F)N/N=C/c1ccc2c(c1)OCO2	?	-12%	54%[activator]	3%[46.1 µM]	.	-10%	-1%	.
Cc1ccc(OCC(=O)NCCCNC(=O)c2cccnc2)cc1	10%[46.1 µM]	-8%	6%	0%[46.1 µM]	.	4%	-1%	.
CCCc1ccc(C2=Nn3c(nnc3C(C)C)SC2)cc1	-15%[46.1 µM]	7%	-4%	?	.	-16%	-3%	.
CCOc1cc(/C=N/O)ccc1OS(=O)(=O)c1ccc(C)cc1	?	-12%	10%	?	2%	-60%	-17%	-5.6%
O=C(Nc1nnc(-c2ccccc2Cl)o1)c1ccco1	-5%	-3%	0%	4%	3%	-56%	30%	3.0%
COc1ccc(/C=C2/C(=O)N(c3ccccc3)N=C2C)cc1OC	5%[46.1 µM]	10%	6%	17%[46.1 µM]	.	?	2%	.
CN(c1ccccc1)c1nc(N)c([N+](=O)[O-])c(N2CCOCC2)n1	4%	2%	10%	?	.	-6%	0%	.
O=C1CSC(c2ccc([N+](=O)[O-])cc2)N1c1ccc(O)cc1 (configuration not stated)	-22%	6%	-1%	14%	.	8%	3%	.

Compounds were not picked by outcome; 4.7% or so of the library scored in one or more.
